MenB inh = inhibitors of Mycobacterium tuberculosis MenB enzyme. P9WNP5. MenB enzyme assay, absorbance read-out; some hits fall short of the stated cut. inhibition, %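 (about 12 µg/mL by stock and volumes)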. hit rate 0.43% among 100,000. AID 540299;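 active = mean of two replicates above 30%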;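 note: 0% = no compound and 100% = wells with inactive enzyme; the first replicate is given; strong numbers were not always called active; inactives centre near -10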
Target sequence (P9WNP5 whole entry, looked up): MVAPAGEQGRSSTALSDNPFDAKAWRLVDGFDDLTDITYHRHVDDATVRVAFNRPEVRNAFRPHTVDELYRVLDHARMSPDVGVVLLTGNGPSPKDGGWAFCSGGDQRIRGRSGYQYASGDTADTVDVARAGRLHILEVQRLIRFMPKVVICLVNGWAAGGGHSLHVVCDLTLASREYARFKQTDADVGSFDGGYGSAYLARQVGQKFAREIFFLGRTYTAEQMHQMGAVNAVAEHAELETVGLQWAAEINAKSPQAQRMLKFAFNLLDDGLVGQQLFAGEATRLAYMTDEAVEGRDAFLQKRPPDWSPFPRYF
Mtb MbtI inh = inhibitors of Mycobacterium tuberculosis siderophore enzyme MbtI; purified MbtI enzyme, fluorescence intensity read-out; inhibition, %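 (about 17 µg/mL by stock and volumes)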; hit rate 0.89% among 100,000;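 active = above 50% in both replicates, above 80% if mildly self-fluorescent; inactive = the rest, strongly fluorescent compounds included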;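 note: 0% = mean of negative and 100% = mean of positive controls; one replicate is shown; some compounds called inactive have numbers as strong as hits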
PV pol inh = poliovirus RNA polymerase inhibition | P03300 | poliovirus polymerase elongation, fluorescence polarization; stronger effect = lower value | % elongation, % (compound at 16.7 µg/mL) | hit rate 0.66% among 150,000 | AID 588519; in the data active = % elongation below about 90%; note: some results filed as inactive read as strong as hits
Target sequence (P03300 1749-2209 limits assumed): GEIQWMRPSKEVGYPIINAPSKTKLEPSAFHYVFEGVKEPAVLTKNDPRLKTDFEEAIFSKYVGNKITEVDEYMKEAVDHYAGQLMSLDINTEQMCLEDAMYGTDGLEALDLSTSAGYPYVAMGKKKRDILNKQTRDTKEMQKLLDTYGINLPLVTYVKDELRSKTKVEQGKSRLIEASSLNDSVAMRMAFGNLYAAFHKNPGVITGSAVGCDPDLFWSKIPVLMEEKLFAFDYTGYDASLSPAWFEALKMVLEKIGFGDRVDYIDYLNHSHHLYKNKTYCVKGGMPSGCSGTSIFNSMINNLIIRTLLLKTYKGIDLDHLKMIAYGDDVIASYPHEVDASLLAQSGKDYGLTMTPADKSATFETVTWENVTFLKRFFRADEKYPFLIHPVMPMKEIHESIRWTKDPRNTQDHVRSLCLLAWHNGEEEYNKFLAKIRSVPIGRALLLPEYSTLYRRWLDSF
PV pol inh intensity = also measured in PV pol inh; calls as there; % elongation; measured here: total intensity read-out; formula for this scale not given here;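 total fluorescence in place of polarization; lower means less elongation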
* hit, by the source's call; i = inactive; · = not tested or not shown; & = joins results of further samples.

SMILES	MenB inh	Mtb MbtI inh	PV pol inh	PV pol inh intensity
Cn1c(SCC(=O)c2ccc(Cl)cc2)nnc1-c1ncc(C(F)(F)F)cc1Cl	10	-2	104	111
CNC(=O)c1ccc(OC)c(S(=O)(=O)NC)c1	6	-11	101	102
COc1ccc(CCNc2nc(SCC(=O)c3ccc(F)cc3)nc3ccccc23)cc1OC	-12	7	105	104
CCc1nn2c(C)cc(=O)[nH]c2c1C	6	·	103	94
CCC(CC)NC(=O)Nc1ccccc1C	2	-14	101	102
CCn1c(SCc2nnc(-c3ccccc3)o2)nc2sc(C)c(C)c2c1=O	-10	-4	105	109
OC1(c2ccccn2)COc2ccccc2O1 (configuration not stated)	·	-9&-1	102	92
Cc1nnc(N2C(=O)C(=O)/C(=C(/O)c3ccc(OC(C)C)cc3)C2c2ccco2)s1 (configuration not stated)	-90	-1	101	106
Cc1ccc(SCC(=O)N2CCc3ccccc32)cc1	-2	-4	100	98
N#CC1=C(N)N(N2CCOCC2)C2=C(C(=O)CC(c3ccccc3)C2)C1c1ccc(Cl)cc1 (configuration not stated)	2	-2	101	102

Random excerpt: two records from the list.
SMILES	MenB inh	Mtb MbtI inh	PV pol inh	PV pol inh intensity
Cn1c(SCC(=O)c2ccc(Cl)cc2)nnc1-c1ncc(C(F)(F)F)cc1Cl	10	-2	104	111
CNC(=O)c1ccc(OC)c(S(=O)(=O)NC)c1	6	-11	101	102

New compounds follow.
SMILES	MenB inh	Mtb MbtI inh	PV pol inh	PV pol inh intensity
C(=N\n1cnnc1)/c1ccccn1	6	-4	103	102
O=C(O)c1n[nH]c(=S)n1C1CC1	-9	2	·	·
CCN(CC)Cc1ccc(C(=O)NN)o1	7	-8	101	107
CC(C)OC(=O)CSc1nnnn1C	-27	-3	103	100
CCCCCCCC/C=C\CCCCCCCC(=O)OC[C@@H](O)COP(=O)(O)O	0	-13	102&101	105&104
CCOC(=O)/C(C#N)=C/Nc1ccc2oc(=O)c(NC(C)=O)cc2c1	-9	34	104	101
O=C(Nc1ccc(S(=O)(=O)Nc2nccs2)cc1)c1cc2ccccc2oc1=O	-19	·	106	113
NC(N)=NCc1cccc(I)c1	-17	-1	99	101
C=CCn1c(SCC(=O)Nc2sc3c(c2C(N)=O)CCC3)nc2sc(C)c(C)c2c1=O	1	1	107	112
O=C(Cc1nc2ccccc2[nH]1)Oc1ccccc1	7	·	75*	81*
CC(=O)N1CCN(C(=O)CSc2nc3cc(Cl)ccc3s2)CC1	-6	-20	103	102
COC(=O)c1ccccc1S(=O)(=O)NC(=O)N(C)c1nc(C)nc(OC)n1	-4	-8	98	103
COC(=O)c1cc2sc(Cl)cc2n1CC(=O)N1CCCc2ccccc21	-4	-1	105	103
COc1ncnc(Cl)c1N	-2	0	103	102
O=C(O)COCC(=O)N1CCN(c2cc(C(F)(F)F)nc3ccccc23)CC1	-18	-6	104	107
CCc1ccccc1N=C1SCC(=O)N1C	-15	-4	104	104
O=C(/C=C/c1ccc(S(=O)(=O)N2CCCCCC2)cc1)OCc1nnc(-c2ccccc2)o1	-21	-2	102	106
O=C(/C=C/c1ccco1)NCc1ccccc1C(F)(F)F	-12	6	103	107
O=C(Cn1c(-c2cccs2)cc2ccccc21)NCc1cccs1	-4	120	102	104
Cc1nc(NCC(=O)O)c2c3c(sc2n1)CCCC3	-28	14	102	103
Nc1nc(C2CCCCC2)cs1	·	-4	103	103
CCCCC(=O)Nc1ccc(N2CCN(C(=O)CCC)CC2)c(Cl)c1	-44	-23	102	104
CCOC(=O)c1sc2nc(C)nc(N3CCC(C)CC3)c2c1C	-13	4	101	103
c1ccc2c(c1)CCCC2C1=NCCN1 (configuration not stated)	-14&-6	-12&-9	100&100	101&100
COc1cccc(NC=C2C(=O)OC(C)(C)OC2=O)c1	18	2	99	100
CN1CCSc2ccc(C(=O)NCCN3CCCC3)cc21	-5	-56	102	107
Cc1ccc(S(=O)(=O)/N=C(\c2ccccc2)N(C)S(=O)(=O)c2ccc(C)cc2)cc1	-10	3	102	107
O=C(NCC1CCCO1)C1CC(c2ccc(F)cc2)=NO1 (configuration not stated)	2	2	100	97
Cc1ccccc1SCC(=O)OC(C)C(N)=O (configuration not stated)	12	-4	97	97
COC(=O)c1cnc(N2CCN(c3ncc(C(=O)OC)c(C(F)(F)F)n3)CC2)nc1C(F)(F)F	-7	17	102	105
COc1ccc2c(c1)C(=O)/C(=C/c1ccc(N(C)C)cc1)CC2	-25	8	112	114
CCc1cccc(C)c1NC(=O)C1COc2ccccc2O1 (configuration not stated)	1	-12	103	106
COc1ccc2oc(=O)c(-c3ccccc3)cc2c1	-20	·	108	102
COc1ccc(CC(=O)N(Cc2nc(-c3ccc(Cl)cc3)no2)C(C)C)cc1OC	-12	-1	101	103
N#CCc1nc2ccccc2c(=O)[nH]1	-3	38	99	102
COc1ccccc1OC(=O)c1sccc1C	-23	-12	99	106
Cc1ccc(S(=O)(=O)NC(=O)N2CCCC2)cc1	-17	-7	100	106
N#Cc1ccc(C#N)c(-c2ccccc2)c1	-22	·	102	95
Cc1nc(C(F)(F)F)ccc1C(=O)N1CCC(n2cccc2)CC1	4	-4	103	100
O=C(COc1ccc(-c2ccccc2)cc1)NCc1cccnc1	·	-15	101	104

Record cards, as listed above. Order of values: MenB inh	Mtb MbtI inh	PV pol inh	PV pol inh intensity
O=C(Nc1ccc(S(=O)(=O)Nc2nccs2)cc1)c1cc2ccccc2oc1=O across the screens: -19	·	106	113
COc1ccc(CC(=O)N(Cc2nc(-c3ccc(Cl)cc3)no2)C(C)C)cc1OC across the screens: -12	-1	101	103
O=C(Cn1c(-c2cccs2)cc2ccccc21)NCc1cccs1 across the screens: -4	120	102	104

Just Mtb MbtI inh and PV pol inh intensity (3 entries from above):
smiles	Mtb MbtI inh	PV pol inh intensity
Cn1c(SCC(=O)c2ccc(Cl)cc2)nnc1-c1ncc(C(F)(F)F)cc1Cl	-2	111
CNC(=O)c1ccc(OC)c(S(=O)(=O)NC)c1	-11	102
COc1ccc(CCNc2nc(SCC(=O)c3ccc(F)cc3)nc3ccccc23)cc1OC	7	104

The listing picks up with the two entries that preceded the break.
SMILES	MenB inh	Mtb MbtI inh	PV pol inh	PV pol inh intensity
Cc1nc(C(F)(F)F)ccc1C(=O)N1CCC(n2cccc2)CC1	4	-4	103	100
O=C(COc1ccc(-c2ccccc2)cc1)NCc1cccnc1	·	-15	101	104
Cc1nnsc1C(=O)N1CCN(C=O)CC1	0	-1	100	103
N/C(=N\O)c1ccc(NC(=O)c2ccccn2)cc1	2	·	104	103
CC1=CC(C)(C)NC(=S)N1c1ccc(C(C)C)cc1	-33	·	101	103
Cc1cc(C)c(S(=O)(=O)N(CC#N)CC#N)c(C)c1	-21	·	98	106
O=C(C1CC(=O)N(c2ccc(Cl)cc2)C1)N1CCN(Cc2ccc3c(c2)OCO3)CC1 (configuration not stated)	-50	-7	104	102
CC(NC(=O)c1ccc(-c2ccccc2)cc1)C(=O)O (configuration not stated)	29*	3	103	99
O=C(CN1CCc2sccc2C1c1cccs1)N1CCC(c2ccccc2)=N1 (configuration not stated)	-27	4	100	106
CCOC(=O)c1sc(N2C(=O)C(O)=C(C(=O)c3ccco3)C2c2ccco2)nc1C (configuration not stated)	-12	12	100	103
O=C(NCCc1cccs1)c1ccc(Cl)cc1	-34	-9	102	104
O=C(CSc1ncn[nH]1)Nc1cccc2ccccc12	-18	-14	100	102
O=C(COC(=O)/C=C/c1cccc(Cl)c1)NC1CCCCC1	·	0	103	106
Cc1ccc(C2=NS(=O)(=O)N(C)C(C(=O)Nc3cc(C)n(CC(=O)N4CCOCC4)n3)=C2)cc1	3	7	101	101
Cc1cccc(-n2cnc3c(c2=O)c2nc4ccccc4nc2n3CCC(C)C)c1	-20	-29	103	105
C=CCNC(=O)c1ccccc1NC(=O)C1COc2ccccc2O1 (configuration not stated)	-36	7	103	102
O=c1c2c(nc(NCCCO)n1Cc1ccccc1)-c1ccccc1CC21CCCC1	-12	116	104	103
CC(=O)NCc1n[nH]c(=O)c2ccccc12	-3	3	103	107
CC(=O)Nc1ccc(NC(NC(=O)c2cccs2)C(=O)c2ccccc2)cc1 (configuration not stated)	-11	3	100	100
COc1ccc(Cl)cc1NC(=O)c1sc2nc(C)n(C)c(=O)c2c1C	-6	-3	99	100
Nn1c(SCc2cc(=O)oc3cc(O)c(O)cc23)nnc1-c1ccncc1	-90	5	106	112
COc1ccc(-c2noc(N3CC(C)CC(C)C3)n2)cc1OC (configuration not stated)	0	-5	101	103
O=C(NCCN1CCCc2ccccc21)c1cc(-c2cccs2)nc2ccccc12	-27	21	102	98
CCOc1ccc(-c2nc(C#N)c(NCCCN(CC)CC)o2)cc1	5	i	100	98
CCCCNS(=O)(=O)c1cccc(C(F)(F)F)c1	0	-9	103	104
Cc1nc(NC2=NCN(CCCN3CCOCC3)CN2)nc2c(C)cccc12	-20	8	101	99
c1ccc2c(c1)NC1(CCCC1)n1c-2nc2ccccc21	-7	105	101	99
Cn1cc(S(=O)(=O)Nc2ccccc2N2CCOCC2)c(C(F)(F)F)n1	21	-8	104	106
CCOC(=O)CC(=O)Cc1nc(N)nc(Nc2ccc(C)c(C)c2)n1	-18	-8	105	101
Brc1ccc2ncnc(N3CCCCCC3)c2c1	-25	-3	104	102
CC(Sc1nc2cc(Cl)ccc2c(=O)n1C(C)C)C(=O)Nc1ccc(N2CCOCC2)cc1 (configuration not stated)	-27	-3	105	101
O=c1nc(NC2CCCCC2)cn[nH]1	-12	0	103	109
COC(=O)c1ccc(N2CCc3cc4ccc(C)cc4nc32)cc1	-30	0	102	102
Cc1ccc(Cn2c(C)c3cn[nH]c(=O)c3c2C)cc1	-13	-1	103	108
Cc1ccccc1-n1ccnc1SCC(N)=O	12	12	99	100
COc1cccc(C(=O)NCC2(c3ccccc3)CCCC2)c1	-7	·	104	109
COc1ccc(C(=O)NC(C)C)cc1I	-16	1	101	102
CC(C)C(=O)Nc1ccc(-c2nc3cccnc3s2)cc1	-2	102	100	92
COc1cc(-c2n[nH]c(=S)n2C)cc(OC)c1OC	-68	59	100	100
CC1CCCCN1S(=O)(=O)c1ccc(N)cc1 (configuration not stated)	-16	·	106	102
O=C1C=C(NCc2ccco2)CCC1	·	14	102	100
O=C(CNc1cccc(C(F)(F)F)c1)N/N=C/c1ccc2c(c1)OCO2	-10	2	99	98
CCOc1ccccc1C(=O)NC(C(=O)OC)C(C)C (configuration not stated)	-26	10	105	103
CNC(=O)COc1ccccc1C(F)(F)F	-29	-19	101	104
O=C(/C=C/C=C/c1ccc2c(c1)OCO2)N1CCCCC1	4&-7	-14&-18	100&100	101&101
NC(=O)c1ccc(NC(=O)Cc2coc3cc4c(cc23)CCC4)cc1	-14	-3	106	110
COc1ccc(-c2cc(=O)oc3cc4occ(C)c4cc23)cc1	-15	2	101	102
O=C1c2ccccc2C(=O)N1CCCCn1nnc(-c2ccc(F)cc2)n1	-17	-13	107	110
CN(Nc1ccccc1)C1=C(C#N)CN(C2CCCCC2)C1=O	-15	·	102	103
CCc1ccccc1Nc1nc(N)nc(CNCc2ccc(F)cc2)n1	-8	4	104	107
O=C(NCc1ccc2c(c1)OCO2)C1CCCN1C(=O)NCc1ccccc1 (configuration not stated)	3	-26	104	102
COC(=O)c1ccc(/C=C2/Oc3ccccc3N(Cc3ccccc3F)C2=O)cc1	-12	17	104	107

The list continues:
SMILES	MenB inh	Mtb MbtI inh	PV pol inh	PV pol inh intensity
O=C(CCc1nc2cccnc2n1-c1ccccc1)NC1CCCCC1	-9	3	101	103
CC1CN(C(=O)COC(=O)c2cccc3ccccc23)CC(C)O1 (configuration not stated)	-48	103	98	95
O=C1Nc2ccccc2SC1CO (configuration not stated)	-12	·	107	109
CCN(c1ccc(C)c(C)c1)S(=O)(=O)c1cc(Br)cc2c1N(C(C)=O)C(C)C2 (configuration not stated)	-25	1	102	104
CC(C)c1cc(=O)c2c(=O)n(-c3ccccc3)[nH]c2[nH]1	16	44	99	101
NS(=O)(=O)c1ccc(CCNC(=O)C2CCCCN2S(=O)(=O)c2ccccc2)cc1 (configuration not stated)	-3	6	99	99
COc1ccn(C)c(=O)c1C#N	-8&-2	-17	100&99	98&102
COc1ccc(Nc2ccccc2N)cc1	·	-38	100	181

Screening results (PubChem BioAssay)
